Source: PubChem (several laboratories)
FGF22 binding: binders of recombinant human FGF22 by thermal shift | SYPRO orange fluorescence; percent of sucrose octasulfate shift, DMSO zero | Q9HCT0 | calls only at 9.99 µM | 340,000 compounds, 1.5% hits;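 active = melting point raised past a set limit in the mean and every replicate; inconclusive = no clear call; three in four hits are not shown here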
Target sequence (Q9HCT0 whole entry, looked up): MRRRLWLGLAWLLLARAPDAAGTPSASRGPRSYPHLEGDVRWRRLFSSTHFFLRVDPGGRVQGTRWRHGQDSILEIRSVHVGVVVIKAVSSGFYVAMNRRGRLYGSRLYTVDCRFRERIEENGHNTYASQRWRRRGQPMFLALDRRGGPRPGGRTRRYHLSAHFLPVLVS
Ecoli growth: blocks Escherichia coli growth; OD600 absorbance (test concentration not listed); 330,000 compounds, 0.21% hits; AID 1053175; OD600, 23 h; hits give low values;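 active = OD600 absorbance below the run mean of sample wells minus 3.6 SD, in any replicate, cut at about 0.56 in these data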;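 note: stock transfer was 300 nL into about 60 µL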
HNF4A DNA FP: change in binding of human HNF4 alpha to DNA; AID 1224865; P41235; HNF4a-FITC DNA binding, fluorescence polarization, 1 h; activity change, % at 10 µM; 360,000 compounds, 0.3% hits; in the data active = activity change above about 30%, passing the limit was not always enough;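 note: controls were the assay level and a saturating level of protein; the project sought stronger binding though the title names inhibitors; some compounds called inactive have numbers as strong as hits; positive values seem to mean higher polarization but the record does not say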
UCH37 inh: inhibitors of human deubiquitinating enzyme UCH37; AID 588478; purified proteasome/UCH37, Ub-AMC cleavage fluorescence; inhibition, % (no concentration beside the values); 330,000 compounds, 0.33% hits;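 active = mean of two replicates above 20%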;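 note: 0% = compound-free wells with enzyme and 100% = wells lacking proteasome; stock transfer was 100 nL into about 20 µL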
Target sequence (Q9Y5K5 whole entry, looked up): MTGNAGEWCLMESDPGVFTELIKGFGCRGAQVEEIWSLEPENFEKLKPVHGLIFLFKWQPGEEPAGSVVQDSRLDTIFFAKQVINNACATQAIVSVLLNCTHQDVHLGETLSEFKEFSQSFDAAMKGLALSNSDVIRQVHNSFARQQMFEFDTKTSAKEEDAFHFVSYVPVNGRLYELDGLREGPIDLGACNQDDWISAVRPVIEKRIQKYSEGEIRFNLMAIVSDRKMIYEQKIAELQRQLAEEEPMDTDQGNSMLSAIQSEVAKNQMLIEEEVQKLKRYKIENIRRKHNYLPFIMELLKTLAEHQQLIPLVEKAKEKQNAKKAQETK
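system = Proteasome-associated human UCH37 deubiquitinase | amount = 0.15 nM proteasome as dispensed | medium = pH 7.4 Tris-HCl (50 mM) with ovalbumin, ATP-MgCl2, DTT | incubation = 30 min preincubation with enzyme, 25 min cleavage at room temperature | detection = AMC fluorescence 355/460 nm | read-out basis = percent inhibition | controls = no-proteasome and no-compound wells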
Vif TR-FRET: inhibitors of Vif binding to APOBEC3G peptide, primary screen, biochemical, TR-FRET, GST-Vif 1-94, biotin-A3G peptide, dose response retest (AID 1117319); TR-FRET GST-Vif / biotin-A3G peptide binding; higher % means a stronger effect; test concentration not given here; strong numbers were not always called active; inhibition, %, or IC50 in µM where a hit was titrated; 260,000 compounds, 0.57% hits;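 active = above the screen mean plus three standard deviations and confirmed in dose response; inconclusive = results disagree or hit not tested in dose response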;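 note: Vif residues 1-94 fused to GST binding biotinylated APOBEC3G peptide 110-148; 0% = full assay without inhibitor and 100% = GST in place of GST-Vif; retest series ran down from 100 µM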
MLL AF4-AF9 inh: blocks AF4 peptide binding to human AF9; P42568; AlphaScreen, biotin-AF4 peptide binding to FLAG-AF9; inhibition, % at 10 µM; 350,000 compounds, 0.47% hits;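 active = every replicate reaching a set inhibition limit, whatever the replicate mean, cut at about 25% in these data; inconclusive = mean inhibition reaches that limit but some replicates miss it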;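 note: 0% = plate neutral control median and 100% = total signal loss; the record names both 10 and 1 µM as test concentration; the first replicate is given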
Target sequence (P42568 whole entry, looked up): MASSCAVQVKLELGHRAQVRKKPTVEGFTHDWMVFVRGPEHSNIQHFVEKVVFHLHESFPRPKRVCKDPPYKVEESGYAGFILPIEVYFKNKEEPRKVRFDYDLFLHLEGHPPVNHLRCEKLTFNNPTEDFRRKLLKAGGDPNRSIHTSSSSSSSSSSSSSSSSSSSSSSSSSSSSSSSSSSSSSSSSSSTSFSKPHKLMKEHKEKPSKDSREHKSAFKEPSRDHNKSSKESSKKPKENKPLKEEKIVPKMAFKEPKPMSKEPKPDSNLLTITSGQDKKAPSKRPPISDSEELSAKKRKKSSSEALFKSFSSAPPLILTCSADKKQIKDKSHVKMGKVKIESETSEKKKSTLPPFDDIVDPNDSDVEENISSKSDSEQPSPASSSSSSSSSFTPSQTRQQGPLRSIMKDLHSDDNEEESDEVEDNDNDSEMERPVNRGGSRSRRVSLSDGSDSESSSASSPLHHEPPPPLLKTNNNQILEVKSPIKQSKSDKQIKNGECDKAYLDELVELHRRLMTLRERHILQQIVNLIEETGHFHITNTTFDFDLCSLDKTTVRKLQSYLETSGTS
RanGTP-Imp inh: inhibitors of RanGTP-importin-beta interaction, primary screen, biochemical, FRET, CFP-Ran, YFP-importin-beta, homogeneous | inhibition, % (no concentration beside the values) | cell-free CFP-Ran/YFP-importin-beta FRET ratio | 300,000 compounds, 1.1% hits;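 active = most replicates above 15%; inconclusive = exactly half above 15%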;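 note: 0% = DMSO wells and 100% = Ran loaded with GDP instead of GTP; wells of about 40 µL received 100 nL stock; the first replicate is given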
* hit, by the source's call; & = joins results of further samples. Not all compounds are listed; rates above refer to the full screens.

How did CCOc1ccccc1NC(=S)N1CCC(NC(=O)NC23CC4CC(CC(C4)C2)C3)CC1 do in these assays?
Ecoli growth: 0.68; HNF4A DNA FP: 2.0; UCH37 inh: 1.5; Vif TR-FRET: 3%; RanGTP-Imp inh: 5.3

What do the screens show for `Cc1cccn2c(=O)c(/C=C(\C#N)C(N)=O)c(N3CCCCCC3)nc12`?
FGF22 binding: inactive; Ecoli growth: 0.66; HNF4A DNA FP: 0.0; UCH37 inh: 3.2; Vif TR-FRET: 1%; MLL AF4-AF9 inh: 11; RanGTP-Imp inh: -1.3

What do the screens show for `O=[N+]([O-])c1ccc(Nc2nc(N3CCOCC3)nc(N3CCOCC3)n2)cc1`?
FGF22 binding: inactive; Ecoli growth: 0.69; HNF4A DNA FP: -3.9; UCH37 inh: 4.9; MLL AF4-AF9 inh: -0.4; RanGTP-Imp inh: -1.6

Results for Cc1ccc(CNC(=O)CCCCCNC(=O)N2CCn3c2nc2ccccc23)cc1 ?
FGF22 binding: inactive; Ecoli growth: 0.72; HNF4A DNA FP: 2.7; UCH37 inh: 4.6; Vif TR-FRET: -11%; MLL AF4-AF9 inh: -2.2; RanGTP-Imp inh: -0.5

Results for CN(C)CCNC(=O)c1coc(=O)c(Br)c1 ?
Ecoli growth: 0.7; HNF4A DNA FP: -0.2; UCH37 inh: -54; Vif TR-FRET: 1%; RanGTP-Imp inh: -0.6

Results for COc1cc(C(=O)N2CCN(S(=O)(=O)c3ccc(C)cc3)CC2)ccc1OCC(=O)N1CCOCC1 ?
FGF22 binding: inactive; Ecoli growth: 0.72; HNF4A DNA FP: 2.0; UCH37 inh: 2.2; MLL AF4-AF9 inh: -0.3

Results for Fc1cccc2sc(N3CCCC3)nc12 ?
FGF22 binding: inactive; Ecoli growth: 0.68; HNF4A DNA FP: 6.0; UCH37 inh: 4.9; MLL AF4-AF9 inh: -1.3; RanGTP-Imp inh: -3.9

What do the screens show for `CCCc1nnc(NC(=O)CCC(=O)N2CCN(Cc3ccc(C)cc3C)CC2)s1`?
FGF22 binding: inactive; Ecoli growth: 0.65; HNF4A DNA FP: -1.9; UCH37 inh: 3.1; MLL AF4-AF9 inh: 0.4; RanGTP-Imp inh: 5.6

What do the screens show for `CNS(=O)(=O)c1cccc(C(=O)NCC(C)(C)N2CCCCC2)c1`?
FGF22 binding: inactive; Ecoli growth: 0.64; HNF4A DNA FP: 1.3; UCH37 inh: 7.4; MLL AF4-AF9 inh: 0.3; RanGTP-Imp inh: -0.1

Results for O=C(NCCC1=CCCCC1)C1CCN(c2nc3ccccc3o2)CC1 ?
Ecoli growth: 0.68; HNF4A DNA FP: 8.3; UCH37 inh: 1.8; Vif TR-FRET: 0%; RanGTP-Imp inh: -2.5

How did Cc1ccc(C(=O)Nc2ccc(N3CCN(C)CC3)nc2)cc1 do in these assays?
FGF22 binding: inactive; Ecoli growth: 0.71; HNF4A DNA FP: 3.2; UCH37 inh: 5.2; Vif TR-FRET: -9%; MLL AF4-AF9 inh: -1.1; RanGTP-Imp inh: -1.2

How did N#C/C(C(=O)NCc1ccccc1)=C1/N=C(NC(=O)c2cccs2)c2ccccc21 do in these assays?
FGF22 binding: inactive; Ecoli growth: 0.7; HNF4A DNA FP: 2.7; UCH37 inh: 2.5; MLL AF4-AF9 inh: -1.0; RanGTP-Imp inh: 9.0

How did COc1cccc(CN(C)Cc2c(O)ccc3ccccc23)c1 do in these assays?
FGF22 binding: inactive; Ecoli growth: 0.66; HNF4A DNA FP: -0.1; UCH37 inh: -1.6; Vif TR-FRET: 4%; MLL AF4-AF9 inh: 0.8; RanGTP-Imp inh: 0.6

What do the screens show for `CCCc1cc(C(=O)Cc2ccc(F)cc2)c(O)cc1O`?
Ecoli growth: 0.68; HNF4A DNA FP: -3.0; UCH37 inh: 3.3; Vif TR-FRET: 3%; RanGTP-Imp inh: -2.2

What do the screens show for `CCOC(=O)c1oc2nc(CC(C)C)c3c(c2c1N)CCC3`?
FGF22 binding: inactive; Ecoli growth: 0.67; HNF4A DNA FP: 2.2; UCH37 inh: -411; Vif TR-FRET: 6%; MLL AF4-AF9 inh: 6.4; RanGTP-Imp inh: 0.1

Results for Cc1ccc(S(=O)(=O)N2CCN(C(=O)c3cc(=O)c4ccccc4o3)CC2)cc1 ?
FGF22 binding: inactive; Ecoli growth: 0.72; HNF4A DNA FP: -17; UCH37 inh: 1.7; Vif TR-FRET: 6%; MLL AF4-AF9 inh: 1.1; RanGTP-Imp inh: -0.2

Results for CCCCn1c(N)c(N(CCC(C)C)C(=O)CC2CCCCC2)c(=O)[nH]c1=O ?
FGF22 binding: inactive; Ecoli growth: 0.69; HNF4A DNA FP: 1.1; UCH37 inh: 3.8; Vif TR-FRET: -5%; MLL AF4-AF9 inh: -1.3

How did Nc1nc2c(s1)CC(c1ccccc1)CC2 (centres undefined) do in these assays?
Ecoli growth: 0.67; HNF4A DNA FP: 3.6; UCH37 inh: 1.7; Vif TR-FRET: 2%; RanGTP-Imp inh: 2.5

How did CC(=O)Nc1ccc(C(=O)Nc2nnc(CCc3ccccc3)s2)cc1 do in these assays?
FGF22 binding: inactive; Ecoli growth: 0.72; HNF4A DNA FP: 3.1; UCH37 inh: 1.7; MLL AF4-AF9 inh: -4.2; RanGTP-Imp inh: -2.7

How did Cn1cnnc1SCc1ccc(C(=O)O)cc1 do in these assays?
Ecoli growth: 0.81; HNF4A DNA FP: 2.3; UCH37 inh: 1.3; Vif TR-FRET: -2%; RanGTP-Imp inh: 3.3

How did COc1ccc(/C=N/NC(=O)CCn2nnc3ccccc32)cc1 do in these assays?
FGF22 binding: inactive; HNF4A DNA FP: 2.6; Vif TR-FRET: -4%; MLL AF4-AF9 inh: 0.8; RanGTP-Imp inh: -1.1

Results for Cc1ccc(NC(=O)CS(=O)CC(=O)N(c2ccccc2)C(C)C(=O)NC2CCCC2)cc1 (centres undefined) ?
FGF22 binding: inactive; Ecoli growth: 0.64; HNF4A DNA FP: -1.3; UCH37 inh: 3.1; Vif TR-FRET: -1%&-7%; MLL AF4-AF9 inh: -6.5; RanGTP-Imp inh: 0.0

Results for O=c1c2c3c(sc2nc(N2CCNCC2)n1CCc1ccccc1)CCCCC3 ?
FGF22 binding: inactive; Ecoli growth: 0.61; HNF4A DNA FP: 2.9; UCH37 inh: 1.4; Vif TR-FRET: -17%; RanGTP-Imp inh: 4.6

What do the screens show for `CNC(=S)Nc1cccc(S(=O)(=O)NCc2ccco2)c1`?
FGF22 binding: inactive; Ecoli growth: 0.7; HNF4A DNA FP: -0.1; UCH37 inh: 0.3; Vif TR-FRET: -4%; MLL AF4-AF9 inh: 1.7

Results for C[C@@H]1CN([C@@H](C)CO)C(=O)c2cc(-c3ccncc3)cnc2O[C@H]1CN(C)C(=O)c1cccc(F)c1 ?
FGF22 binding: inactive; HNF4A DNA FP: -0.8; Vif TR-FRET: 5%; MLL AF4-AF9 inh: -6.3&-3.3&-1.4

How did COc1cc(CN(C)CC2CCCN(CCc3ccc(F)cc3)C2)c(Cl)cc1O (centres undefined) do in these assays?
FGF22 binding: inactive; Ecoli growth: 0.64; HNF4A DNA FP: 0.8; UCH37 inh: 2.7; Vif TR-FRET: 6%; MLL AF4-AF9 inh: -0.7; RanGTP-Imp inh: 1.5

What do the screens show for `Cc1ccc(C(=O)CCS(=O)(=O)c2ccc(Br)cc2)cc1`?
FGF22 binding: inactive; Ecoli growth: 0.68; HNF4A DNA FP: -0.3; UCH37 inh: 1.5; MLL AF4-AF9 inh: -10; RanGTP-Imp inh: -3.1

Results for CC12CCC(C(=O)O)(c3nc4cc([N+](=O)[O-])ccc4nc31)C2(C)C (centres undefined) ?
FGF22 binding: inactive; Ecoli growth: 0.68; HNF4A DNA FP: -1.0; UCH37 inh: 6.6; Vif TR-FRET: 11%; MLL AF4-AF9 inh: 1.7; RanGTP-Imp inh: inconclusive

Results for Cc1ccc(S(=O)(=O)N2CCCCC2)cc1C(=O)OCC(=O)NC(=O)NC12CC3CC(CC(C3)C1)C2 ?
Ecoli growth: 0.71; HNF4A DNA FP: 4.0; UCH37 inh: 5.0; Vif TR-FRET: 0%; RanGTP-Imp inh: 1.1

Results for COc1ccc(-c2csc(NC(=O)c3ccc(S(C)(=O)=O)cc3)n2)cc1 ?
FGF22 binding: inactive; Ecoli growth: 0.65; HNF4A DNA FP: 1.4; UCH37 inh: -2.9; MLL AF4-AF9 inh: -0.5; RanGTP-Imp inh: -3.6

What do the screens show for `Cc1cc(Oc2ccc(Cl)cc2)nc(SCC(=O)c2ccccc2)n1`?
FGF22 binding: inactive; Ecoli growth: 0.68; HNF4A DNA FP: 0.9; UCH37 inh: 1.3; Vif TR-FRET: 6%; MLL AF4-AF9 inh: 0.0; RanGTP-Imp inh: -1.3

How did OC(c1ccc(CN2CCCCC2)cc1)c1ncc(-c2ccccc2)[nH]1 (centres undefined) do in these assays?
FGF22 binding: inactive; HNF4A DNA FP: -5.2; MLL AF4-AF9 inh: 4.7

How did O=C(NCCO)/C(=C\c1ccco1)NC(=O)c1cccs1 do in these assays?
FGF22 binding: inactive; Ecoli growth: 0.69; HNF4A DNA FP: 0.3; UCH37 inh: 5.6; MLL AF4-AF9 inh: -6.7; RanGTP-Imp inh: 0.6

What do the screens show for `COC(=O)c1ccccc1NC(=O)c1c(O)c2c([nH]c1=O)CCCC2`?
Ecoli growth: 0.73; HNF4A DNA FP: -3.9; UCH37 inh: 0.7; Vif TR-FRET: inconclusive; RanGTP-Imp inh: 0.3

What do the screens show for `Cc1cc(NC(=O)CN(C)C)c([N+](=O)[O-])cc1C`?
FGF22 binding: inactive; Ecoli growth: 0.65; HNF4A DNA FP: 0.8; UCH37 inh: 1.2; Vif TR-FRET: 1%; MLL AF4-AF9 inh: 0.4; RanGTP-Imp inh: -1.2

How did O=C(O)c1cc2nccc(-c3ccc(F)cc3)n2n1 do in these assays?
FGF22 binding: inactive; Ecoli growth: 0.67; HNF4A DNA FP: 2.3; UCH37 inh: -43; Vif TR-FRET: 17%; MLL AF4-AF9 inh: -1.3; RanGTP-Imp inh: -7.0

What do the screens show for `COc1cccc(CC2(CO)CCCN(Cc3cn[nH]c3C3CCCCC3)C2)c1` (centres undefined)?
Ecoli growth: 0.65; HNF4A DNA FP: -1.2; UCH37 inh: -2.0; Vif TR-FRET: 2%; MLL AF4-AF9 inh: 3.1; RanGTP-Imp inh: 1.9

What do the screens show for `Cc1csc(SCC(=O)Nc2sccc2C(N)=O)n1`?
Ecoli growth: 0.69; HNF4A DNA FP: -3.9; UCH37 inh: 0.0; Vif TR-FRET: 25%; MLL AF4-AF9 inh: 0.9; RanGTP-Imp inh: 4.8

What do the screens show for `O=C(CSC1=Nc2ccccc2C2=NC(CC(=O)NC3CCCCC3)C(=O)N12)NCc1ccco1` (centres undefined)?
Ecoli growth: 0.72; HNF4A DNA FP: -6.5; UCH37 inh: -14; Vif TR-FRET: 4%; RanGTP-Imp inh: -1.7

What do the screens show for `Cc1cc(C(=O)CSc2nc(N)cc(=O)[nH]2)c(C)n1Cc1ccco1`?
FGF22 binding: inactive; Ecoli growth: 0.71; HNF4A DNA FP: -4.5; UCH37 inh: 5.6; Vif TR-FRET: 12%; MLL AF4-AF9 inh: -14; RanGTP-Imp inh: 5.6

How did CC(=O)Nc1ccc(N=Nc2ccccc2)cc1[N+](=O)[O-] do in these assays?
FGF22 binding: inactive; Ecoli growth: 0.7; HNF4A DNA FP: -5.0; UCH37 inh: 2.8; MLL AF4-AF9 inh: 5.2

How did CC(=O)c1ccccc1OC(=O)COc1ccc(Cl)cc1C do in these assays?
Ecoli growth: 0.7; UCH37 inh: 2.7; Vif TR-FRET: -4%; MLL AF4-AF9 inh: -2.2; RanGTP-Imp inh: -2.6
